UUG fidelity: modulators of yeast start codon fidelity, primary screen, whole organism, S. cerevisiae, single point, plate reader | AID 602363, 2012 | S. cerevisiae UUG-firefly luciferase reporter, luminescence/redox ratio | 0.13% of 350,000 active | activity score, % at 18.7 µM;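 active means replicate mean at a twofold rise or more, about +100% in these data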;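 further: firefly luciferase made from a UUG start codon reports start codon fidelity; reporter light over untreated wells divided by growth signal over untreated wells; some hits fall short of that in this replicate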
eIF4H inh: human eIF4H binding inhibitors, primary screen, translation initiation inhibitor project, biochemical, uHTS, fluorescence polarization; 0.94% of 290,000 active; eIF4H fluorescence polarization binding assay; Eukaryotic translation initiation factor 4H (Homo sapiens), Q15056; inhibition, % at 35 µM;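 active means 50% or more with normal probe brightness, or confirmed in later tests; inconclusive means above 50% with abnormal brightness, or retests that disagree; inactive means below 50% or failed in later tests; about a fifth of its hits are not listed in these tables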;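 further: calls also rest on retests at 20 µM and on dose response follow-up; 0% = protein and probe with vehicle and 100% = probe without protein; strong numbers were not always called active; many hits fall short of the cut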
Rce1 inhib: yeast Rce1p protease inhibitors, primary screen, biochemical, fluorescence, cell-free homogeneous; yeast membranes, quenched prenylated peptide cleavage fluorescence; 0.27% of 290,000 active; CAAX prenyl protease 2 (Saccharomyces cerevisiae (strain ATCC 204508 / S288c)), Q03530; calls only;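 active means fall in fluorescence gain of 50% or more versus controls, with final raw signal at or below 3038400; inconclusive means same 50% fall but final raw signal above 3038400; inactive means fall in fluorescence gain under 50%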;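 further: plate controls were neutral control wells for no effect and wells lacking membranes for full effect; tested at 10 µM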
Target sequence (Q03530 whole entry, looked up): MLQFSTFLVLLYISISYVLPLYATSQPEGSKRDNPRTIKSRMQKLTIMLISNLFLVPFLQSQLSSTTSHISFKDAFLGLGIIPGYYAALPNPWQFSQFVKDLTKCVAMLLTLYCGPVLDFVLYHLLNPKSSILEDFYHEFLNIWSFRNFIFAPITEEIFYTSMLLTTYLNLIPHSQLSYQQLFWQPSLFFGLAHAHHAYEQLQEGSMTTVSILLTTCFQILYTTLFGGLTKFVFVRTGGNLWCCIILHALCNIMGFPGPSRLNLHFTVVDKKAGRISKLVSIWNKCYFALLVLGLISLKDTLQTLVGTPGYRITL
MT1-MMP act inh: blockers of MT1-MMP proenzyme processing, primary screen, HT1080 RFP-PRO-GFP cells, GFP/RFP fluorescence | Matrix metalloproteinase-14 (Homo sapiens), P50281 | 0.061% of 360,000 active | GFP/RFP ratio fluorescence, overnight; percent of plate control window, DMSO zero | GFP/RFP ratio change, % at 20 µM;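 active means GFP/RFP ratio change of at least 30% with cell ATP level not reduced by more than half and red fluorescence within 50% of control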; further: strong numbers were not always called active
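Compound: 20 µM single dose, 1% DMSO / System: HT1080 RFP-PRO-GFP cells / Controls: DMSO and RFP-L50D-GFP cell wells / Read-out basis: GFP/RFP fluorescence ratio / Schedule: overnight compound exposure at 37 °C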
PABP polyA inh: PABP poly(A) RNA binding inhibitors, primary screen, biochemical, fluorescence polarization, uHTS; Polyadenylate-binding protein 1 (Homo sapiens), P11940; inhibition, % at 35 µM; 1% of 290,000 active; AID 2014, 2009;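 active means 50% or more with normal probe brightness, or confirmed in later tests; inconclusive means above 50% with abnormal brightness, or retests that disagree; inactive means below 50% or failed in later tests; about a fifth of its hits are not listed in these tables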;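 further: calls also rest on retests at 20 µM and on dose response follow-up; controls were probe without protein and protein plus probe with vehicle; some compounds called inactive have numbers as strong as hits; many hits fall short of the cut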
HIV Env fusion: inhibitors of HIV-1 Env-driven cell-cell fusion, primary screen, HeLa-JRFL effector, CEM21 target cells, luciferase; 1.1% of 360,000 active; AID 651610, 2012; inhibition, % at 12.3 µM;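 active means mean replicate inhibition score of at least 50 and every replicate individually at or above 50; inconclusive means only one of the two criteria met; inactive means mean below 50 and not all replicates reaching 50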;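 further: 0% = plate neutral controls and 100% = maraviroc near 300 nM; one replicate is shown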
CSC inhib: cancer stem cell viability inhibitors, primary screen, luminescence. inhibition, % at 7.5 µM. AID 2717, 2010. cancer stem cell-like cells viability. 1.1% of 300,000 active;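 active means mean at 75% or more and at least half the replicates too; inconclusive means mean and replicates disagree; tested in HMLE shEcad cells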;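 further: 0% = median of negative and 100% = median of positive control wells; the first replicate is given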
eIF4H inh retest: recorded beside eIF4H inh, whose call it bears; inhibition, %; compound at 20 µM; confirmation average;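 mean of two retest wells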
PABP polyA inh retest: also measured in PABP polyA inh; calls as there; inhibition, %; compound at 20 µM; confirmation repeats;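 mean of two retest wells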
MT1-MMP act inh RFP: recorded beside MT1-MMP act inh, whose call it bears; RFP signal change, %; measured here: RFP expression control read;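 0 = vehicle wells; hits needed this value within 50% of zero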
Active calls of the source: *; i = inactive; ? = inconclusive; / = no result given; & = joins results of further samples; [ ] = another dose, or the depositor's remark.

SMILES	UUG fidelity	eIF4H inh	Rce1 inhib	MT1-MMP act inh	MT1-MMP act inh RFP	PABP polyA inh	HIV Env fusion	CSC inhib	others
O=C(Cn1ccc2ccccc2c1=O)N1CCN(Cc2ccc3c(c2)OCO3)CC1	-8	5	i	2	-2	-4	14	/
COc1ccc(-c2cc(C(=O)Nc3cccc(O)c3)no2)cc1	-36	-4	i	4	-1	9	-68	26
C[C@@H]1CN([C@@H](C)CO)C(=O)c2cc(NC(=O)Nc3ccccc3)ccc2O[C@H]1CN(C)C(=O)Nc1cccc2ccccc12	11&1	/	/	9	3	/	-19[16.7 µM]	-12
C=C[C@@H]1c2cc(C)ccc2N(S(=O)(=O)c2ccc(C)cc2)[C@H](c2ccccc2C(F)(F)F)C1(C#N)C#N	-20	/	/	6	-21	/	56*	34
COc1ccc(N=Nc2nc(-c3ccccc3)c(-c3ccccc3)[nH]2)cc1	-18	35	i	-9	-10	4	3	-2
COCCCN1CC(=O)N2C(c3cccc(OC)c3OC)c3[nH]c4ccccc4c3C[C@H]2C1=O (stereo partly drawn)	10	3	i	-4	-3	2	-6	-6
CCc1cc2c(COC(=O)c3cc(S(=O)(=O)N4CCOCC4)ccc3F)cc(=O)oc2cc1O	0	/	/	-7	-7	/	/	16
C[C@@H]1CN([C@@H](C)CO)C(=O)CCCn2nncc2CO[C@H]1CN(C)C(=O)C1CC1	5&-7	/	/	-1	5	/	-3	/
COc1cccc(NC(=O)CSc2nccn2-c2cccc(OC)c2)c1	67	-2	i	3	-3	1	/	-12
CCOC(=O)c1[nH]c2ccc(OC)cc2c1NC(=O)CCN1CCC(C)CC1	/	-4	i	/	/	37	/	-10
Cc1ccc(S(=O)(=O)N2CCC(C(=O)OCC(=O)N3CCCC3=O)CC2)cc1C	11	/	i	1	3	/	1	-16
CN(C)c1ccc(/C=[N+](\[O-])C(C)(C)/C=N/O)cc1	-10	-10	i	0	-6	7	-64	-9
O=C(NCc1ccc(Cl)nc1)c1ccc2sc([C@@H]3O[C@H](CO)[C@H](O)[C@H](O)[C@H]3O)nc2c1	-19	/	/	5	4	/	0	/
CCCCC(CCCCl)C(=O)Nc1ccccc1 (stereo not drawn)	/	-8	i	-1	0	-4	8	-1
CNc1n[nH]c(-c2ccccc2)n1	-15	/	/	0	1	/	-3	/
COc1ccc(-c2nc(CN3CCC(C(=O)NC4CCCC4)CC3)c(C)o2)cc1OC	-13	/	i	-3	0	/	-21	-2
O=C(OCc1ccccc1)/C(=C/c1ccccc1Cl)NC(=O)c1ccco1	-9	-4	i	-3	-7	7	4	29
CN(Cc1nc(-c2cccnc2)no1)S(=O)(=O)c1ccccc1	-12	0	i	3	-1	4	/	-8
Cc1cc(C(=O)NCC2COc3ccccc3O2)c2ccccc2n1 (stereo not drawn)	/	4	i	2	-6	-4	1	0
CC(C)C(=O)N1CCN(c2ccc(NC(=O)c3ccc4c(c3)OCCO4)cc2Cl)CC1	/	-1	i	-17	-22	2	38	/

Overlap with the part before: 4 compounds, followed by the next part.
SMILES	UUG fidelity	eIF4H inh	Rce1 inhib	MT1-MMP act inh	MT1-MMP act inh RFP	PABP polyA inh	HIV Env fusion	CSC inhib	others
O=C(OCc1ccccc1)/C(=C/c1ccccc1Cl)NC(=O)c1ccco1	-9	-4	i	-3	-7	7	4	29
CN(Cc1nc(-c2cccnc2)no1)S(=O)(=O)c1ccccc1	-12	0	i	3	-1	4	/	-8
Cc1cc(C(=O)NCC2COc3ccccc3O2)c2ccccc2n1 (stereo not drawn)	/	4	i	2	-6	-4	1	0
CC(C)C(=O)N1CCN(c2ccc(NC(=O)c3ccc4c(c3)OCCO4)cc2Cl)CC1	/	-1	i	-17	-22	2	38	/
FC(F)(F)c1cccc(N2CCN(C(=S)NC3CCCC3)CC2)c1	-28	3	i	10	-1	-2	/	-7
N#Cc1ccc(OCC(=O)NNC(=S)NC(=O)C2CC2)cc1	/	/	/	-1	0	/	8	-8
O=C(NCc1ccco1)/C(=C/c1cccnc1)NC(=O)c1cccc(Br)c1	-23	0	i	0	3	-2	-21	-8
O=c1ccc2ccc(OCCOc3cccc(Cl)c3)cc2o1	-21	-2	i	8	-1	4	-8	8
COc1ccc(Cl)cc1NC(=O)C/C(C)=N/NC(=O)c1ccccc1[N+](=O)[O-]	-16	0	i	4	1	-4	9	12
N#Cc1ccc(NC(=O)COC(=O)C2CCC2)cc1	-21	/	/	3	8	/	?	/
CC(=O)N1CCc2ccc(S(=O)(=O)N3CC(C)OC(C)C3)cc21 (stereo not drawn)	/	0	i	-1	-1	13	9	-3
CCOc1cc(C2NC(=O)c3ccccc3O2)ccc1OC (stereo not drawn)	-6	5	i	2	0	-1	-1	-3
Cc1cc(C)nc(NC(=O)c2cccs2)n1	-11	-8	i	3	1	8	-14	-2
CC(C)(C)c1ccc(N2C(=O)CC(C/C=C/c3ccccc3)C2=O)cc1 (stereo not drawn)	-5	2	i	-3	0	2	15	1
Cc1cc(=O)cc(C)n1-c1ccccc1Br	-21	0	i	1	5	7	-49	-15
Cc1nc2c(nnn2Cc2c(Cl)cccc2Cl)c(=O)[nH]1	-31	1	i	4	-10	5	-16	-22
COc1ccc(-n2c(=S)[nH]c3sc(-c4ccccc4)cc3c2=O)c(OC)c1	-21	10	i	1	-1	0	-1	-2
Cc1nnc(SCCC#N)n(CCC#N)c1=O	-15	-1	i	1	3	-1	/	/
O=C(NCc1ccccc1F)c1cccc(S(=O)(=O)N2CCCCCC2)c1	-19	/	/	3	-4	/	9	/
Nc1nnc(SCC(=O)OCC(=O)Nc2ccccc2F)s1	/	6	/	1	0	-10	2	-9
CCOc1ccc(/C=C2\CCCc3c2nc2ccccc2c3C(=O)O)cc1OC	-19	?	i	-75	4	?	/	-9
Cc1cc(=O)oc2c(C)c(OC3CCCCC3=O)ccc12 (stereo not drawn)	/	8	i	-1	2	1	1	-9
CCOc1ccc(S(=O)(=O)N2CCCC(C(=O)NCc3ccccn3)C2)cc1Cl (stereo not drawn)	-32	/	i	4	-1	/	3	-19
CCOc1ccc(S(=O)(=O)N2CCN(C)CC2)cc1NC(=O)c1ccccc1F	-26	-7	i	2	2	-8	-4	-1
O=C(NCc1nnc(SCC(=O)N2CCCC2)o1)c1ccco1	/	3	/	1	5	-12	0	-12
CSc1nc2c(c(=O)[nH]1)C(c1ccc(F)cc1)CC(=O)N2 (stereo not drawn)	/	-8	/	0	3	-8	0	-6
COc1ccc(OC)c(NC(=O)c2ccno2)c1	-4	0	i	-1	3	-15	-18	21
Cc1c2cnn(CC(=O)Nc3c(F)c(F)cc(F)c3F)c(=O)c2c(C)n1Cc1ccccc1F	/	95*	i	1	-4	9.6*	-8	-14	eIF4H inh retest=100*;PABP polyA inh retest=87*
COc1ccc(-n2nc3c(c2NC(=O)C2CC2)CS(=O)C3)cc1 (stereo not drawn)	-19	3	i	1	-1	1	19	/
O=C(N/C(=C/c1ccco1)C(=O)N1CCCCC1)c1cccs1	5	18	/	-5	3	-2	-46	-4
CCOc1ccc2oc(-c3ccccc3)c(C(=O)N3CCN(CCO)CC3)c2c1	/	-4	/	0	2	1	/	/
Cc1cc(=O)nc2c3ccccc3n(CC(=O)NCCCN3CCCCC3C)n12 (stereo not drawn)	-16	8	i	-2	5	7	0	-6
CCCCn1c(N)c(N(CCOC)C(=O)c2cccc(-n3cnnn3)c2)c(=O)[nH]c1=O	-5	/	i	-2	3	/	-1	-4
Cc1noc(C)c1NC(=O)N(C)C[C@H]1Oc2ccc(NS(=O)(=O)c3cccs3)cc2C(=O)N([C@H](C)CO)C[C@@H]1C	-11&-9	/	/	8	4	/	-2	14
Cc1cn([C@@H](CCCCNC(=O)OC(C)(C)C)C(=O)NCCCCCCCCCCC(=O)N2CCN(C(=O)OC(C)(C)C)CC2)nn1	-11	/	/	13	-28	/	/	12
COc1ccc(Cc2n[nH]c(=S)n2C)cc1Br	/	0	i	-2	4	-6	1	6
CCOC(=O)C1=C(C)NC2=C(C(=O)CCC2)C1c1cn(Cc2ccc(Cl)cc2Cl)nc1-c1ccccc1 (stereo not drawn)	-8	-8	i	-7	-17	-4	121*	10
CO/N=C(\CS(=O)(=O)Cc1ccc(OC)cc1)c1ccc(Cl)cc1	-13	14	i	-2	-2	3	/	4
CCN(CC)CCNC(=O)C(=O)Nc1cc2c3c(c1)CCC(=O)N3CCC2	-9	-11	i	-1	1	4	-4	9
Nc1ncnc2c1nc(Br)n2[C@@H]1O[C@@H]2COP(=O)(O)O[C@H]2[C@H]1O	-24	/	i	-1	5	/	-8	9
Cc1cc(Cl)ccc1OCCCC(=O)NCCc1nnc2ccccn12	-27	-6	i	2	-1	-8	8	-2
Cc1ccccc1C(=O)N1CCN(c2ccc(NC(=O)CSc3ccc(Cl)cc3)cc2)CC1	-4	-4	i	-13	-28	-2	/	25
Cc1ccc(S(=O)(=O)N2CCOC2CNC(=O)C(=O)NCCN2CCOCC2)cc1 (stereo not drawn)	-8	-7	i	1	7	-1	7	3
O=C(NCc1cccnc1)c1ccc(=O)oc1	-8	-2	i	-1	0	-6	-39	-7
CCOC(=O)c1c(NCC(C)C)c2ccccc2[nH]c1=O	-8	-2	i	-6	-4	4	/	-11
CCC(=O)Nc1cccc(NC(=O)CSc2nc3c(c(=O)n(C)c(=O)n3C)n2C)c1	-9	-7	i	5	5	0	1	-7
CCCc1nc(SCC(=O)c2ccccc2)c2c(=O)n(C)c(=O)n(C)c2n1	10	0	i	2	-7	-10	17	15
O=C(COc1ccc2c(-c3ccccc3)cc(=O)oc2c1)NCCCN1CCOCC1	-12	-4	i	-6	-3	-14	0	32
COc1ccc(C(=O)O)cc1S(=O)(=O)N(CCc1ccccc1)Cc1ccccc1	-14	-1	i	0	0	8	0	-8
O=C1NC(=O)C(c2cn(-c3ccccc3)nc2-c2ccc(F)cc2)N1 (stereo not drawn)	4	-11	/	-6	-1	-3	/	/
CCOC(=O)[C@H]1[C@H]2COc3ccc(OC)cc3[C@@H]2N2C(=O)CN(CCc3c[nH]c4ccccc34)C(=O)[C@@]12C	1	/	/	-6	-3	/	-20	-1
CC(C)(NO)/C(=N\O)c1ccccc1	0	-1	i	3	5	8	/	-10
COc1ccc(C(=O)NCC(=O)N/N=C(C)\C=C\c2ccccc2)cc1OC	/	2	/	-1	-2	13	0	-14
CCC(C)c1ccccc1OCCCNC1CCCC1 (stereo not drawn)	-6	4	i	-4	-2	-2	-33	26
COCCCNC(=O)c1cccs1	-10	-9	i	2	6	0	16	4
CCOC(=O)C1(Cc2ccccc2)CCCN(C(=O)c2cn[nH]c2)C1 (stereo not drawn)	-11	0	i	2	3	8	4	5
CC(C)NC(=O)Cn1c(=O)c2c(ncn2Cc2ccccc2)n(Cc2ccccc2)c1=O	/	2	i	8	4	-2	/	-5
C=CCOc1ccc(/C=C/C(=O)OCC(=O)NC2CCCCCCC2)cc1	-37	-5	i	2	5	3	60*	-18
